# Beta apoptosis: blocks beta cell apoptosis | INS-1E cytokine-induced death, ATP luminescence, 48 h; percent of positive-control rescue, neutral wells zero | protection from apoptosis, % (no concentration beside the values) | 300,000 compounds, 0.8% hits | AID 435005;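 active means all replicates at 75% or more, or half of them and the mean; inconclusive means half reach 75% but not the mean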;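 further: 0% = cytokine-treated negative control wells and 100% = positive control rescue; higher means more ATP so stronger rescue from cytokine killing; wells of about 40 µL received 100 nL stock; the first replicate is given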
# LANA-H2A inh: blocks KSHV LANA binding to histone H2A/H2B; cell-free LANA-H2A/H2B peptide, fluorescence polarization; 320,000 compounds, 0.6% hits; Q9QR71; AID 2629; inhibition, % (concentration not given with the values); in the data active means inhibition mostly above about 10%, no sharp cut-off; inactive means mostly below about 6.7%;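 further: stock transfer was 7.5 nL into about 10 µL; 0% = median of vehicle wells and 100% = median of positive control wells; one replicate is shown; the record names a cut of 25% in any replicate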
# Target sequence (Q9QR71 whole entry, looked up): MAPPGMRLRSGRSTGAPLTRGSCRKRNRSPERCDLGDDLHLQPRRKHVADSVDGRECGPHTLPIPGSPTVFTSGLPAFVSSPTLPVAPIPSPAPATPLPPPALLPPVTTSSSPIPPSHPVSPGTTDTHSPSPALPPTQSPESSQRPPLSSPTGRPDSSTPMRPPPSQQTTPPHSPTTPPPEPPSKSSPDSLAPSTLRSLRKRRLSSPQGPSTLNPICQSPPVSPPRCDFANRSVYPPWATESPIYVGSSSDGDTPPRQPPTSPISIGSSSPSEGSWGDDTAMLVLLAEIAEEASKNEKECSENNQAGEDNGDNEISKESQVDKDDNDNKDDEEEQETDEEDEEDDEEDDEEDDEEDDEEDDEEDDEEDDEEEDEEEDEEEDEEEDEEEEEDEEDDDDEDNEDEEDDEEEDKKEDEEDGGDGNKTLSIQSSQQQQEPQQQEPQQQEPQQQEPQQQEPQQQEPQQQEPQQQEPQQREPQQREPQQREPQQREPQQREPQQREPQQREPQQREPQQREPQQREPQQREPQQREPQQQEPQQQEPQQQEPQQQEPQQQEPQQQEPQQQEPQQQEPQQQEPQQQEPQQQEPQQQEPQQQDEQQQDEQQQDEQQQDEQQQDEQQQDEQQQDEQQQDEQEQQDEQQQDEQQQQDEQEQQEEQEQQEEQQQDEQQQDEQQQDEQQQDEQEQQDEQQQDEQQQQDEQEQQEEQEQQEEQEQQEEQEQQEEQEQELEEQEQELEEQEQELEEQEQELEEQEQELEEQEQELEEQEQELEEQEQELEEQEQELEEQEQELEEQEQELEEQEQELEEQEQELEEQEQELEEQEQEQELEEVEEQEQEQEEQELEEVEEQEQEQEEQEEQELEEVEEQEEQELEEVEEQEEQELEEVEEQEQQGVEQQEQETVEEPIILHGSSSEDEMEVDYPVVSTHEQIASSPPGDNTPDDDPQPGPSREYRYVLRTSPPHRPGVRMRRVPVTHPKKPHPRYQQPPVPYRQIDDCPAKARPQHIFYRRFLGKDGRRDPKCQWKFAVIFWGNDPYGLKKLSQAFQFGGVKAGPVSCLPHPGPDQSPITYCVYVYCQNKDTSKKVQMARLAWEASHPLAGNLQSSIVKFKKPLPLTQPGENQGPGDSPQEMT
# Bfl-1 A1 inh: inhibitors of the anti-apoptotic protein A1, read as caspase activation; MEF A1-2A-BIM cells, Caspase-Glo 3/7 luminescence, 3 h; percent of clofoctol response, vehicle zero; caspase activation, % (concentration not given with the values); 330,000 compounds, 0.066% hits; AID 2462;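 active means over half of replicate activation scores above 10%, or exactly half above 10 with the replicate mean above 10; inconclusive means replicate mean below 10 yet half the replicates above 10; inactive means over half of replicates below 10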;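 further: wells of about 30 µL received 50 nL stock; many hits fall short of the cut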
# * hit, by the source's call; i = inactive; ? = inconclusive; + = active, no number. These rows are one share of the data; the hit share may differ from the screen's.
SMILES,Beta apoptosis,LANA-H2A inh,Bfl-1 A1 inh
C=CCC[C@H](Cc1ccc(F)cc1)C(=O)OC[C@@H](Cc1c[nH]c2ccccc12)NC(=O)[C@H](CC=C)CC(=O)NCCO,-6,-9.4,-0.9
CCOC(=O)[C@@H]1[C@H]2COc3cc(OC)ccc3[C@H]2N2C(=O)N(c3cccc(F)c3)C(=O)[C@]12C,-8,-0.5,-1.3
O=Cc1c(Cl)cccc1Cl,-3,-3.0,0.1
COc1ccc(C2CC(=O)C3=C(C2)Nc2ccccc2NC3c2coc3ccccc3c2=O)cc1OC (stereo not given),3,-1.6,0.2
C[C@H](CO)N1C[C@H](C)[C@@H](CN(C)Cc2ccc(-c3ccccc3)cc2)Oc2c(NS(=O)(=O)c3ccc(F)cc3)cccc2C1=O,7,0.3,-0.3
COc1cccc(C2=CC(=O)C[C@H](c3ccc4c(c3)OCO4)C2)c1OC,5,-1.7,-1.6
COc1ccc(NC(=O)c2nc[nH]c2C(=O)NCCCCCNC(=O)OC(C)(C)C)cc1,-3,-0.6,-0.3
CC(C)(C)OC(=O)C[C@@H]1C/C=C\C[C@@H](CC(=O)N(CCO)Cc2ccccc2)C(=O)N[C@H](C(C)(C)C)COC1=O,8,4.5,-0.1
O=C1C=C(c2ccc3c(c2)OCCO3)C[C@@H](c2ccc(F)cc2)C1,-3,5.4,-0.3
NC(=O)c1ccccc1[N+](=O)[O-],-2,-3.2,-0.8
CCOC(=O)[C@H]1[C@H]2COc3ccc(OC)cc3[C@@H]2N2C(=O)c3ccc(Cl)cc3NC(=O)[C@@]12C,-2,1.9,0.8
Cc1cccc(Oc2cc(NC(=O)Cn3cnc([N+](=O)[O-])n3)cc([N+](=O)[O-])c2)c1,-2,-1.4,0.0
COc1ccc2c(c1)C(=O)N1[C@H]3c4cc(Br)ccc4OC[C@@H]3[C@H](c3ccccc3)[C@]1(C)C(=O)N2,9,-1.0,-0.4
CCOC(=O)[C@@H]1[C@H]2COc3cc(OC)ccc3[C@H]2N2C(=O)N(c3ccc(Cl)cc3)C(=O)[C@]12C,-5,-2.1,0.7
CCOC(=O)[C@@H]1[C@H]2COc3ccc(Br)cc3[C@H]2N2C(=O)N(c3ccc(C(F)(F)F)cc3)C(=O)[C@]12C,-8,1.1,-0.9
CC(C)n1cnc2c(NCc3ccccc3)cc(N[C@@H](CO)Cc3ccccc3)cc21,135*,4.0,-2.1
Cc1c(N(C)C)c(=O)n(-c2ccccc2)n1C,4,42*,0.1
CCC(C)Sc1ccc([C@H]2N[C@@](C)(C(=O)OC)[C@H]3C(=O)N(CC)C(=O)[C@@H]23)cc1OC (stereo not given in full),-23,2.7,1.3
Cc1c(C(C)CCCO)oc(=O)c2c1Oc1c(C)c(C(C)C[C@@H](C)O)oc(=O)c1C2 (stereo not given in full),-4,-3.6,0.2
C#CCOCCOCCOCCNc1nc(N2CCN(C(=O)CCCCCCCCCCNC(=O)[C@H](CCC(=O)O)n3cc(CCCCCN)nn3)CC2)nc(N2CCN(C(=O)CCCCCCCCCCNC(=O)[C@@H]([C@H](C)O)n3cc(C)nn3)CC2)n1,-4,-0.7,1.0
Cn1c2ccccc2c(=O)c2cc(C#Cc3cccc(N)c3)ccc21,7,-0.6,-4.1
COC(=O)C1=C(C)N(Cc2ccccc2)C(=NCCc2cccnc2)N[C@H]1c1ccc(Br)cc1,2,0.8,0.7
COc1cc(-c2noc(C)c2C(=O)NCCCN2CCCC2=O)cc(OC)c1OC,-4,-0.3,0.3
C#CCOCCOCCOCCNc1nc(N2CCN(C(=O)CCCCCCCCCCNC(=O)Cn3cc(CCCCCN)nn3)CC2)nc(N2CCN(C(=O)CCCCCCCCCCNC(=O)[C@H](CO)n3cc(CCCCCN)nn3)CC2)n1,7,-27,1.3
CC(C)[C@H](NC(=O)OCc1ccccc1)C(=O)NC(C=O)Cc1ccccc1 (stereo not given in full),-3,-4.9,0.9
Oc1cc(Cl)cc(Cl)c1Cl,0,-7.3,-0.5
CCOC(=O)[C@@H]1[C@H]2COc3ccc(Br)cc3[C@H]2N2C(=O)N(c3ccc(Cl)cc3)C(=O)[C@]12C,-5,2.4,?
COC(=O)c1ccc(-n2cc(-c3ccc(OC)cc3)[nH]c2=S)cc1,-4,1.3,-0.5
O=C(CCC(=O)Nc1ccc(Cl)cc1Cl)NNC(=O)[C@@H]1CCCC[C@@H]1C(=O)O,-2,2.7,0.7
CC(=O)Nc1cc(OC(C)=O)c2nonc2c1OC(C)=O,-3,-6.8,-0.8
CC(C)(C)OC(=O)NCc1ccc(CNC(=O)c2nc[nH]c2C(=O)N2CCN(C(=O)OC(C)(C)C)CC2)cc1,-4,3.5,-0.9
C=CC[C@@H](CC(=O)N[C@H](CO)Cc1ccccc1)C(=O)N[C@H](COC(=O)[C@@H](CC=C)CC(=O)OC(C)(C)C)Cc1ccccc1,3,-1.9,1.0
COc1cccc(C2C3=C(Nc4[nH]n(-c5ccccc5)c(=O)c42)c2ccccc2C3=O)c1 (stereo not given),2,-6.3,-0.1
COc1cc(OC)cc(-c2c(C#Cc3ccsc3)c3cc(-c4cc(F)cc(F)c4)ccc3n2C)c1,2,0.1,0.6
N#Cc1ccccc1N1CCN(C(=O)c2ccc(NC(=O)c3ccc(Br)o3)cc2)CC1,0,-6.5,1.6
Cc1cccc(-c2sc(Nc3ccccc3)n[n+]2-c2ccccc2)c1,-2,0.7,1.9
C#CCOCCOCCOCCNc1nc(N2CCN(C(=O)CCCCCCCCCCNC(=O)Cn3cc(CCCCCN)nn3)CC2)nc(N2CCN(C(=O)CCCCCCCCCCNC(=O)[C@@H](CCSC)n3cc(CCO)nn3)CC2)n1,17,-7.6,1.2
NC(=O)C1CCN(c2nc(-c3cccs3)cs2)CC1,-2,4.4,-0.5
CCN(C(=O)N(CC)c1ccccc1)c1ccccc1,1,-0.2,0.1
CCOc1ccc(C(=O)Nc2ccc(S(=O)(=O)N3C[C@@H]4C[C@@H](C3)c3cccc(=O)n3C4)cc2)cc1,-4,17*,0.3
COc1cc2c(cc1OC)CN(Cc1cc(=O)n3cc(C)ccc3n1)CC2,-9,3.6,0.6
Cc1ccc2ncccc2c1,-2,2.3,-0.2
CCOC(=O)[C@@H]1[C@H]2COc3ccc(Br)cc3[C@H]2N2C(=O)N(c3ccc(C)cc3)C(=O)[C@@]12C,-3,-2.3,-0.4
O=C(C[C@H]1C/C=C\C[C@H](NC(=O)OCC2c3ccccc3-c3ccccc32)C(=O)O[C@H](c2ccccc2)CNC1=O)N[C@H](CO)Cc1ccccc1,35,6.6,0.1
O=C(Nc1ccc(Cl)cc1)c1nc[nH]c1C(=O)NCc1ccccc1,2,-2.4,-0.6
CCN1C(=NCc2cc(OC)c(OC)c(OC)c2)N[C@@H](c2ccccc2)C(C(=O)OC)=C1C,-6,3.5,0.7
CN(C(=O)c1ccc(NC(=O)Cc2cccc(NC(=O)C3CCN(C(=O)C4CC4)CC3)c2)cc1)C1CCCC1,1,-4.9,-2.0
CC(C)COC(=O)COc1cc(Cl)c(Cl)cc1Cl,2,-236,0.2
CCC(CO)Oc1cc(NC(=O)c2ccccc2F)c2ncn(C(C)C)c2c1 (stereo not given),11,0.7,-0.3
COc1ccc2c(c1)[C@H]1[C@H](CO2)[C@H](c2ccccc2)[C@]2(C)C(=O)N[C@@H](C)C(=O)N12,9,3.3,-1.4
O=C(N[C@H]1C/C=C\C[C@@H](CC(=O)N(CCO)Cc2ccccc2)C(=O)N2CCC[C@@H]2COC1=O)OCC1c2ccccc2-c2ccccc21,26,-6.7,-0.2
CN(Cc1ccccc1)C(=O)c1[nH]cnc1C(=O)NCc1ccc(CNC(=O)OC(C)(C)C)cc1,0,-5.6,-1.2
Cn1c(C=O)c(-c2ccc3c(c2)OCCO3)c2ccccc21,-4,-5.9,-1.0
CC(C)c1ccccc1,-2,-9.9,0.0
CCOC(=O)[C@H]1[C@H]2COc3cc(OC)ccc3[C@@H]2N2C(=O)N(c3cccc(F)c3)C(=O)[C@@]12C,-2,1.3,0.2
COc1cccc(-c2ccc3ncnc(N(C)Cc4ccco4)c3c2)c1,-1,1.1,-0.5
COc1ccc(C2=CC(=O)C[C@H](c3ccc4c(c3)OCO4)C2)cc1,-8,-3.3,0.1
CC1=CC(=O)c2c(O)ccc(O)c2C1=O,2,17*,0.0
COc1ccc(C2=CCC3CCCCN3C2)cc1OC (stereo not given),-7,11,-0.1
C=CCC[C@@H](Cc1ccc(F)cc1)C(=O)OC[C@@H](NC(=O)[C@H](CC=C)CC(=O)NCCO)C(C)(C)C,-2,1.3,0.4

# One compound at a time, as listed above. Values in the order: Beta apoptosis | LANA-H2A inh | Bfl-1 A1 inh
# Results for Cn1c(C=O)c(-c2ccc3c(c2)OCCO3)c2ccccc21 : -4 | -5.9 | -1.0
# Results for CCC(CO)Oc1cc(NC(=O)c2ccccc2F)c2ncn(C(C)C)c2c1 (stereo not given) : 11 | 0.7 | -0.3
# Results for CC1=CC(=O)c2c(O)ccc(O)c2C1=O : 2 | 17* | 0.0
# Results for COc1cccc(-c2ccc3ncnc(N(C)Cc4ccco4)c3c2)c1 : -1 | 1.1 | -0.5
# Results for CCOC(=O)[C@H]1[C@H]2COc3cc(OC)ccc3[C@@H]2N2C(=O)N(c3cccc(F)c3)C(=O)[C@@]12C : -2 | 1.3 | 0.2

# Following part.
SMILES,Beta apoptosis,LANA-H2A inh,Bfl-1 A1 inh
NC(=O)C1CCN(c2nc(-c3ccc4occc(=O)c4c3)cs2)CC1,-8,3.7,-0.5
O=C1C=C(c2ccc3ncccc3c2)C[C@@H](c2ccc(F)cc2)C1,9,7.0,1.1
CCN(CC)c1ccc(N)cc1,108*,-51,-1.1
O=C1CCN(Cc2ccccc2)C=C1c1ccc(Br)cc1,1,1.1,0.7
O=C(C[C@H]1C/C=C\CC[C@@H](Cc2ccc(F)cc2)C(=O)OCCNC1=O)NCCO,-9,4.6,0.4
Cc1ccc(-c2nnc3c4ccccc4c(C)nn23)cc1S(=O)(=O)N1CCN(C)CC1,2,3.9,-1.1
C/C=C(/C)C(=O)O[C@@H]1Cc2c(ccc3ccc(=O)oc23)OC1(C)C,3,9.3,-1.1
CC(=O)C[C@H](O)CC(=O)[C@@H]1OC(=O)CCCCCCc2ccccc21,-7,0.4,-2.2
Cc1ccc2nc(N3CC(=O)Nc4ccccc43)nc(-c3ccccc3)c2c1,5,-4.8,-0.3
CCCCCC(N)=O,-5,-70,0.4
Nc1ccc2ncccc2c1N,-3,1.1,0.1
CN(c1ccc(O)cc1)c1nc(-c2ccccc2)cs1,3,+,-1.4
CCC(OC(=O)C(CC(C)C)NC(=O)c1ccccc1)C(=O)Nc1nnc(C)s1 (stereo not given),-6,-1.5,0.1
CCOc1ccccc1N,4,23*,0.0
O=C(O)CCSSCCC(=O)O,-1,2.3,-0.1
CC(C)(C)OC(=O)N1CCC[C@@H]1CO,6,-4.6,1.3
O=C(NCc1cccc(F)c1)c1cccc2c1C(=O)c1ccc(N3CCC(Cc4ccccc4)CC3)cc1S2(=O)=O,-1,3.8,0.5
C=CC[C@H](CC(=O)NCCO)C(=O)NC[C@@H](OC(=O)[C@H](CC=C)CC(=O)OC(C)(C)C)c1ccccc1,-2,2.9,0.3
Cc1ccc(N2C(=O)N3[C@@H]4c5ccccc5OC[C@@H]4[C@@H](c4ccccc4)[C@@]3(C)C2=O)cc1,-2,0.3,1.6
COc1ccc(C#Cc2c(-c3ccccc3)n(-c3ccccc3)c3ccc(CO)cc23)cc1,5,2.5,-1.8
Cc1ccc(S(=O)(=O)N2CCN=C2c2ccccc2)cc1C,-8,-2.1,0.7
CCN1C[C@@H]2[C@@H]3C(=O)N(C)C(=O)[C@@H]3[C@](CC)(C1=O)N2C(=O)c1ccc(C(C)(C)C)cc1,-6,-1.3,0.4
CON(C)C(=O)c1ccccc1N(C)C(=O)OC(C)(C)C,1,-2.3,0.1
CCC(=O)NC(c1ccc(C)cc1)c1cc(Cl)c2cccnc2c1O (stereo not given),88*,1.9,0.8
Oc1cc(-c2ccc(N3CCCCC3)nc2)cc2cccnc12,96*,-0.3,-8.8
C[C@H](NC(=O)c1nc[nH]c1C(=O)NC1CCNCC1)C(=O)OCc1ccccc1,-2,-3.3,1.4
CC(C)[C@H](N)c1cn([C@@H](CO)C(=O)N2CCNCC2)nn1,-6,-1.0,0.3
CCOc1cc(C2NN=C(c3ccc(C)cc3)S2)ccc1O (stereo not given),0,i,-1.5
COc1ccc([C@H]2CC(=O)C=C(c3ccc(CNC(=O)OC(C)(C)C)cc3)C2)cc1,36,0.4,0.6
O=C(Cn1[nH]c(=O)c2ccccc2c1=O)Nc1cccc(-c2nnc3n2CCCCC3)c1,-3,0.3,-1.8
Cc1cc(-c2ccc(N=Nc3c(S(=O)(=O)O)cc4cc(S(=O)(=O)O)cc(N)c4c3O)c(C)c2)ccc1N=Nc1c(S(=O)(=O)O)cc2cc(S(=O)(=O)O)cc(N)c2c1O,77*,13,-1.6
CC(C)(C)OCC1CO1 (stereo not given),4,9.8,-0.5
O=C(O)c1ccccc1C(=O)O,-3,-2.7,0.1
CC(C)CCN1CCC(C)(NC(=O)c2ccccc2)C1=O (stereo not given),-5,2.9,1.2
Cc1noc(C)c1S(=O)(=O)N(C)C[C@H]1Oc2c(NC(=O)NC(C)C)cccc2C(=O)N([C@H](C)CO)C[C@@H]1C,4,0.0,0.7

# Screens: PubChem BioAssay, Broad Institute
